Six1-Eya2 blk = qHTS Assay for Inhibitors of the Six1/Eya2 Interaction; Homeobox protein SIX1 (Homo sapiens) + Protein phosphatase EYA2 (Homo sapiens), …; AlphaScreen GST-Six1/His-Eya2 binding, biochemical; stronger effect = lower value; control for the full effect not named in the record; activity change, % (no concentration beside the values); 360,000 tested, 0.56% active; in the data active = activity change below about -65%; inconclusive = about -30% to -65%; inactive = above about -30%; further: on the % scale 0 is the no-effect control and ±100 the full control effect; compound concentration not given in the record
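AlphaScreen luminescence read after one hour at 37 °C in darkness. Pin-transferred compounds met GST-Six1 and His-Eya2 protein (5X stock 250 nM/500 nM) plus glutathione donor and Ni-chelate acceptor beads (5X, 50 ug/mL).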
TRPV1 PAM = HTS Assay for Compounds that Act as Potentiators of the Vanilloid Receptor 1; potentiation, % at 8.33 µM; AID 540277, 2011; Transient receptor potential cation channel subfamily V member 1 (Homo sapiens), Q8NER1; 320,000 tested, 0.02% active; TRPV1-expressing cells, Fluo-8 calcium influx, capsaicin EC20 potentiation; host cell line not named in the record; control for the full effect not named in the record; active means potentiation above 80%; inconclusive means 30% to 80%; inactive means below 30%; further: 0% is about no effect
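Fluo-8 calcium influx in TRPV1-expressing cells, kinetic read (ex 480/em 520 nm). Compound added and read 3 min for agonist activity, followed by capsaicin at EC20 final and 2 min further read for enhancement.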
D2 potentiator = Beta-Arrestin HTS for Positive Allosteric Modulators of the Human D2 Dopamine Receptor: Potentiators; potentiation, % (no concentration beside the values); DiscoveRx D2 beta-arrestin cells, luminescence, 90 min; 100% = 57 uM dopamine signal; D(2) dopamine receptor (Homo sapiens), P14416; 360,000 tested, 0.23% active; active = potentiation of 50% or more; inconclusive = 30% to 50%; inactive = 30% or less;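 further: compound concentration not given in the record; tested on top of an EC20 dose of dopamine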
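PathHunter D2 cells, attached overnight at 37 deg C, received compound in DMSO plus dopamine at EC20 (50 nM final) for 90 min at 37 deg C. Beta-arrestin recruitment was read as luminescence after 1 h with detection reagent at ambient temperature.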
CtBP-E1A blk = qHTS Assay for Inhibitors of the CtBP/E1A Interaction; CtBP / adenovirus E1A interaction (AlphaScreen); AlphaScreen GST-E1A/His-CtBP binding, 1536-well; stronger effect = lower value; control for the full effect not named in the record; activity change, % (test concentration not listed); 340,000 tested, 0.49% active; AID 651724, 2012; in the data active means activity change below about -65%; inconclusive means about -30% to -65%; inactive means above about -30%; further: on the % scale 0 is the no-effect control and ±100 the full control effect; compound concentration not given in the record
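Homogeneous bead-based format: GST-tagged E1A captured on glutathione donor beads, His-tagged CtBP on nickel acceptor beads; compounds precede bead addition by 2 h at 37 °C.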
TRPML1 agonist = qHTS for Agonists of the Human Mucolipin Transient Receptor Potential 1 (TRPML1); Mucolipin-1 (Homo sapiens), Q9GZU1; TRPML1-expressing cells, Ca2+ dye fluorescence, FDSS; host cell line not named in the record; reference of the full effect not given here; activation, % (test concentration not listed); 410,000 tested, 0.12% active; AID 624414, 2012; in the data active = activation above about 50%; inconclusive = about 30% to 50%; inactive = below about 30%; further: 0% is about no effect; the text of the record puts the active cut at 80%
Target sequence (Q9GZU1 whole entry, looked up): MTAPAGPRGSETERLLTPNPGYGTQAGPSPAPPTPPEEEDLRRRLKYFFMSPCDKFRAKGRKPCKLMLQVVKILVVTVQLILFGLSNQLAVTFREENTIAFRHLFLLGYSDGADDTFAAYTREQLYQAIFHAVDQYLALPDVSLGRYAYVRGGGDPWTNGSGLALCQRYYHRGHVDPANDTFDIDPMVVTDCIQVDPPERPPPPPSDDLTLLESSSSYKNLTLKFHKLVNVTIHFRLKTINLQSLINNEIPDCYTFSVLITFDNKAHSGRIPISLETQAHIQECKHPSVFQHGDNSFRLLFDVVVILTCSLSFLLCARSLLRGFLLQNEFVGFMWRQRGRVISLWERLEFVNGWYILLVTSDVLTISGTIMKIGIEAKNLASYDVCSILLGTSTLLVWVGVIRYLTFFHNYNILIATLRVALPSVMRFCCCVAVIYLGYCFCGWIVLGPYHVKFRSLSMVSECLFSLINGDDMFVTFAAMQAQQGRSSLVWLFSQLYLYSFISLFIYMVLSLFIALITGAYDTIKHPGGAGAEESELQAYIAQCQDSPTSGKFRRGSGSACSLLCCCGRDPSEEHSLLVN
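In this qHTS format, compounds were pin-transferred onto Ca8-dye-loaded TRPML1-DL cells induced with Tet overnight, and intracellular Ca2+ fluorescence was recorded kinetically for 110 s after a 10 s baseline. A subsequent 4uM final 54-4 (EC80) addition followed by a second 110 s read served as the antagonist phase.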
TRPML1 inh = qHTS for Inhibitors of the Human Mucolipin Transient Receptor Potential 1 (TRPML1). Mucolipin-1 (Homo sapiens), Q9GZU1. activity change, negative = inhibition, % (test concentration not listed). 390,000 tested, 0.02% active. TRPML1-inducible cells, Ca2+ dye fluorescence, FDSS; stronger effect = lower value; inhibition of EC80 agonist-evoked calcium signal; in the data active means activity change below about -50%; inconclusive means about -30% to -50%; inactive means above about -30%;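 further: stimulus is agonist 54-4 at its EC80 concentration; on the % scale 0 is the no-effect control and ±100 the full control effect; compound concentration not given in the record; the text of the record puts the active cut at -80%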
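Tet-induced TRPML1-DL cells loaded with Ca8 no-wash calcium dye were read kinetically on FDSS. Compound addition was followed by EC80 agonist 54-4 (4 uM final); inhibition was read over 110 s.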
Numbers without * were called inactive; ? = inconclusive; . = no result given; & = joins results of further samples.

nr | Structure | Six1-Eya2 blk | TRPV1 PAM | D2 potentiator | CtBP-E1A blk | TRPML1 agonist | TRPML1 inh
1 | Cc1csc(NC(=O)CCS(=O)(=O)c2ccc(Br)cc2)n1 | 2 | 0 | 0 | -28 | 0.6 | -7
2 | Cc1noc(C(=O)Nc2sc3c(c2C#N)CCC3)c1Cl | 6 | ? | -4 | 1 | 0.0 | -7
3 | COc1ccc(-c2ccc(-c3noc(C4CCCCC4)n3)c(OC)n2)cc1 | 12 | 1 | -13 | 10 | 0.5 | -12
4 | COc1ccc(NC(=O)CSc2ccc(C)cc2)cc1 | 1 | -25 | -10 | 7 | 2.9 | -3
5 | O=C(NNC(=S)Nc1cccc(C(F)(F)F)c1)c1ccccc1Cl | -6 | 8 | -43 | -13 | 0.1 | 1
6 | CCCn1c(C(C)NC(C)=O)nc2ccccc21 (stereo not given) | -3 | -24 | -4 | 3 | -0.9 | 4
7 | COC(=O)[C@@]12CCCN1[C@H](c1ccc(SC3CCCCC3)cc1)[C@H]1C(=O)N(C)C(=O)[C@H]12 | -9 | -13 | -55 | -3 | -0.8 | 3
8 | COc1cccc(NC(=O)C2CCN(S(=O)(=O)c3ccc4[nH]c(=O)ccc4c3)CC2)c1 | -10 | ? | -5 | ? | -0.3 | -17
9 | CCOC(=O)C(NC(=O)Nc1ccc(Cl)cn1)(Oc1ccc(F)cc1)C(F)(F)F (stereo not given) | 6 | 14 | -6 | 0 | -1.3 | -3
10 | CC1(C)c2ccccc2-n2c1cc1oc(=O)cc(O)c1c2=O | 10 | -9 | -4 | 5 | -0.2 | 36
11 | Cc1c(F)cccc1NS(=O)(=O)c1ccc2c(c1)NC(=O)CO2 | 1 | 6 | 0 | -1 | -0.6 | -3
12 | CCOC(=O)C1=C(C)NC(=O)CC1c1ccccc1 (stereo not given) | 4 | 5 | -15 | 4 | -1.2 | 0
13 | COc1ccc(OC)c(/C=N/NC(=O)c2[nH]nc3c2CCc2ccccc2-3)c1 | 0 | 17 | -3 | -15 | 0.9 | -2
14 | c1ccc(Nc2nnc(-c3cccnc3)s2)cc1 | 4 | 8 | -7 | 8 | -1.1 | 1
15 | O=C(NCc1ccccc1CN1CCCC1)c1ccc(S(=O)(=O)Nc2ccccc2)cc1 | 5 | . | -30 | -7 | 2.5 | -9
16 | COc1ccc(CN2CCN(C(=O)Cn3nc(C)n4cccc4c3=O)CC2)c(OC)c1OC | 2 | -4 | -10 | 7 | -0.4 | 3
17 | O=C(c1cc(=O)[nH]c2ccccc12)N1CCN(S(=O)(=O)c2ccc3ccccc3c2)CC1 | -6 | 6 | 10 | -1 | 1.7 | 20
18 | COc1ccc(OC)c(S(=O)(=O)N2CCC(C(=O)N3CCc4ccccc4C3)CC2)c1 | -4 | -8 | -11 | -2 | -1.0 | -7
19 | COc1ccc(S(=O)(=O)N2CCCCC2)cc1NS(=O)(=O)c1ccccc1 | -4 | . | -10 | 0 | -0.7 | 3
20 | Cc1ccccc1NC(=O)CSc1ccc2nnc(-c3ccccn3)n2n1 | ? | 1 | 2 | ? | -0.4 | 11
21 | C=C[C@@H]1c2ccccc2N(S(=O)(=O)c2ccc(C)cc2)[C@H](c2ccc(OC(C)=O)cc2)C1(C#N)C#N | -3 | 3 | -6 | -5 | 1.9&-0.3 | 6
22 | Cc1onc(C(=O)NN)c1-c1csc(COc2ccccc2)n1 | -1 | -2 | 9 | . | 1.9 | 27
23 | O=C(N/C(=C\c1ccc(Br)cc1)C(=O)N1CCOCC1)c1ccc([N+](=O)[O-])cc1 | -2 | 13 | 4 | -18 | 0.2 | 13
24 | CCOC(=O)/C(C#N)=C/Nc1cc(OC)ccc1OC | -8 | 8 | -2 | -5 | 1.2 | -18
25 | COc1cc2ccccc2ccc1=NO | -20 | . | 0 | -20 | 0.5 | -5
26 | O=C(Cc1ccsc1)Nc1ccccc1F | -4 | -8 | -5 | 4 | -0.4 | 11
27 | Cc1cc2c(NC(=O)Nc3ccccc3)cccc2nn1 | ? | 12 | -3 | ? | -0.2 | -3
28 | CC(C)(C)OC(=O)CNC(=O)c1[nH]cnc1C(=O)NCCCCCN | -5 | 29 | -4 | -1 | -0.4 | 2
29 | CC(C)(C)OC(=O)N1CCc2onc(-c3ccc(N)cc3)c2C1=O | -9 | . | 4 | -2 | -0.5 | -5
30 | CCOC(=O)c1cnc(-c2ccccc2)nc1Oc1ccc(C)cc1 | 55 | 3 | -10 | 55 | 2.4 | 6
31 | CCc1ccc(N2C(=O)C(Cl)=C(N3CCOCC3)C2=O)cc1 | -2 | 0 | -13 | 4 | -0.8 | 31
32 | CN(C)C=NC(=O)c1cccn1-c1ncc(C(F)(F)F)cc1Cl | 8 | 17 | -1 | 7 | 0.7 | 21
33 | COc1ccccc1CNC(=O)COc1ccc([N+](=O)[O-])cc1 | -3 | -10 | -4 | 0 | 0.4 | 13
34 | O=S(=O)(Nc1ccc(Cl)cn1)c1cccc(S(=O)(=O)c2ccccc2)c1 | 13 | -2 | 0 | . | 1.3 | 6
35 | O=C(c1cc(-c2ccc(Cl)cc2Cl)on1)N1CCN(C(=O)c2ccco2)CC1 | -3 | 3 | -7 | -1 | 1.0 | -19
36 | COc1ccc(CCn2c(NN=C(C)C)nc3c2c(=O)[nH]c(=O)n3C)cc1 | ? | -6 | -1 | ? | 0.2 | -19
37 | Cc1cc(C(=O)N2CCN(Cc3ccccc3)CC2)ccc1[N+](=O)[O-] | -2 | -5 | -1 | 2 | -0.4 | -7
38 | CCCNC(=O)N1CCC(C(=O)c2ccc(Cl)cc2)CC1 | 0 | 24 | -10 | -3 | -0.7 | 10
39 | Cc1ccc(Cn2ncc3c(NCCCN4CCOCC4)ncnc32)cc1 | 7 | 5 | -28 | 4 | -0.5 | 15
40 | CCCC(=O)N(C)c1nnc(-c2ccc(OC)cc2)s1 | 1 | -6 | -12 | . | -0.1 | 0
41 | Cc1ccc(O)c(C(=O)C=Cc2ccccc2)c1 | 17 | . | -19 | -22 | 3.5 | 32
42 | CCc1ccc(NC(=O)Nc2cccc(OC)c2)cc1 | 2 | 1 | -12 | 0 | 0.3 | 28
43 | Cc1ccc(S(=O)(=O)N2CCOCC2)cc1NC(=O)COc1cccc(Oc2ccccc2)c1 | -6 | 13 | 1 | 2 | -0.4 | -3
44 | C=C1C(=O)O[C@H]2[C@H]1[C@H](OC(=O)/C(C)=C\C)C[C@]1(CO1)[C@@H]1[C@H](OC(C)=O)C=C(C)[C@]21O | 3 | . | -12 | -8 | 0.0 | 25
45 | COc1ccc(NC(=O)c2c(-c3c(Cl)cccc3Cl)noc2C)c(OC)c1 | -2 | -4 | -5 | -5 | -0.2 | 2
46 | COc1ccc(S(=O)(=O)N2CCCCC2c2cc(C(=O)Nc3ccc(OC)cc3C)no2)cc1 (stereo not given) | -10 | . | 8 | -11 | 0.0 | .
47 | O=S(=O)(/N=C(\c1ccccc1F)N1CCCCC1)c1ccccc1 | 8 | 7 | 2 | -2 | 0.0 | ?
48 | COc1cccc(/C=N/NC(=O)c2cnn(-c3ccccc3)c2N)c1 | -3 | 8 | -13 | . | -0.8 | 3
49 | CN1C(=O)N(C)C2C1NC(=O)N2C (stereo not given) | 3 | 0 | -18 | -1 | -0.1 | 4
50 | COc1ccc(C2(CNC(=O)c3ccc(OC)c([N+](=O)[O-])c3)CCOCC2)cc1OC | -6 | 23 | -4 | 0 | -0.5 | -5
51 | Cc1cccc(C)c1NC(=O)CN(C)C(=O)c1cccc(S(=O)(=O)N2CCN(c3ccccc3)CC2)c1 | -9 | 2 | -27 | 9 | 1.6 | -14
52 | CCCCCCc1nc(C(N)=O)c2[nH]c(=O)n(-c3ccccc3F)c2n1 | 7 | 20 | -3 | . | 2.3 | -7
53 | COC(=O)C(CC(C)C)N1CCC(=O)c2ccccc2S1(=O)=O (stereo not given) | -18 | -1 | -7 | 2 | 1.3&-0.9 | 25&-15
54 | Cc1cc(C(=O)Nc2nc3ccc(S(C)(=O)=O)cc3s2)c(C)o1 | 18 | 25 | -5 | -11 | 1.1 | 9
55 | CCN(CC)CCN1C(=O)c2cccc3cc(N)cc(c23)C1=O | 10 | -4 | -8 | -23 | -1.2 | ?
56 | Cc1cc(NC(=O)CCn2c(=O)sc3ccccc32)no1 | 6 | . | -3 | 2 | 0.3 | -1

Assay outcomes from PubChem.
